Screening results (PubChem)
Autofluor counter: compound fluorescence in toxin protease inhibitor counterscreen | compound autofluorescence counterscreen, microsphere flow cytometry; stronger effect = higher value | fluorescence intensity (no concentration beside the values) | 360,000 tested, 3.1% active;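 active = at least 3 SD above the mean of all compounds, about 16000 in these data; inconclusive = too few beads counted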;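 also: 100 nL of 1 mM stock went into each well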
Mtb hypoxia rep: reduces hypoxia-regulated biosensor signal in M. tuberculosis. 300,000 tested, 0.1% active. AID 1159583. M. tuberculosis hypoxia-regulated fluorescent reporter, fluorescence. fluorescence inhibition, % (test concentration not listed);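 active = 35 to 45% if threefold the growth effect, above 45% if 1.5-fold the growth effect; inactive = the rest, general growth blockers included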;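 also: wells of about 50 µL received 100 nL stock; 0% = vehicle wells and 100% = reference inhibitor wells; whole bacteria with a GFP reporter of the hypoxia response; strong numbers were not always called active; many hits fall short of the cut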
Sa RN4220 lethal: S. aureus RN4220 growth inhibition; OD600, 16 h; inhibition, % (no concentration beside the values); 330,000 tested, 0.33% active; AID 1259311;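 active = z-score of -3 or lower and OD600 up to 0.18 on both plates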;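 also: plate controls were untreated cells for no effect and reference antibiotic for full effect; stock transfer was 100 nL into about 80 µL; one replicate is shown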
PrP UTR inh: suppresses PrP 5' UTR mRNA reporter expression | cell-based PrP 5' UTR mRNA reporter, plate reader | inhibition, % (concentration not given with the values) | 340,000 tested, 0.35% active | AID 488862;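 active = every replicate at 50% or more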;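 also: 0 = median of the neutral control wells; tested in H4 reporter cells; numbers are from one replicate; inactives centre near -14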
Sa ugtP lethal: kills S. aureus RN4220 lacking UgtP | S. aureus RN4220 ugtP deletion, OD600 growth, 16 h; some inactives read as strong as hits | growth inhibition, % (concentration not given with the values) | 330,000 tested, 0.54% active | AID 1259309;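 active = z-score under -3 and OD600 up to 0.15 on both plates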;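 also: plate controls were untreated wells for no effect and antibiotic for full effect; wells of about 80 µL received 100 nL stock; the first replicate is given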
BJeLR lethal: BJeLR cell viability loss. BJeLR (HRASV12) viability, CellTiter-Glo ATP luminescence, 48 h; reference of the scale not given here. inhibition, % (no concentration beside the values). 300,000 tested, 0.17% active;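 active = replicate mean above 50%; inconclusive = above 50% but judged a plate artefact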;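 also: 50 nL library stock added to about 25 µL; numbers are from one replicate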
Mtb hypoxia rep growth: also measured in Mtb hypoxia rep; calls as there; growth inhibition, %; measured here: M. tuberculosis growth (absorbance);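 0% = vehicle and 100% = reference antibiotic; read after six days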
Starred values were filed as active, the others as inactive; ? = inconclusive; . = no result given.

Structure,Autofluor counter,Mtb hypoxia rep,Sa ugtP lethal,Mtb hypoxia rep growth,BJeLR lethal,Sa RN4220 lethal,PrP UTR inh
CC(=O)c1cccc(NC(=O)COC(=O)CCC(=O)c2cccs2)c1,5143,3,-3,3,.,3.4,-12
CCCCNC(=O)CSc1nnc(-c2cccc(S(=O)(=O)N3CCOCC3)c2)o1,4146,.,5,.,.,5.1,-4
O=C(Cn1c(CO)nc2ccccc21)NC1CCCCCC1,3876,-7,5,0,5,8.5,-19
CCOC(=O)C1CCN(Cc2c(O)ccc3ccccc23)CC1,19910*,9,8,0,7,3.1,-12
C/C(=C\c1ccccc1)C(=O)N1CCN(Cc2ccc3c(c2)OCO3)CC1,3815,16,3,12,4,2.7,-3
CCN(CC)c1ccc(C=C(c2nnnn2-c2ccccc2)c2nnnn2-c2ccccc2)cc1,10231,4,22,10,-7,6.8,2
CCCOc1ccc(N2C(=O)CC(N(Cc3ccco3)C(=O)CC)C2=O)cc1 (stereo unspecified),4054,7,8,18,2,0.9,-4
CCCCN(C)C(=O)c1nc2ccccn2c1CN1CCN(c2cnccn2)CC1,2689,-8,-1,-9,-7,-0.4,1
Cc1cc(F)ccc1S(=O)(=O)Nc1ncnc2sc3c(c12)CCC3,2183,-5,-9,3,-7,12,-11
CN(c1ccc(C(=O)NC2CCCCC2)cc1)S(=O)(=O)c1ccccc1,6319,0,4,3,-11,-1.4,-13
O=C(OCC(=O)c1ccc(Cl)s1)c1cnccn1,6078,3,7,-2,-7,4.2,-26
CCOCCCn1c(C)nc2c(c1=O)c1nc3ccccc3nc1n2-c1ccc(C)cc1,7943,-2,7,-1,5,1.9,4
CC(=O)N1CCN(C(=O)/C(C#N)=C/c2ccc3c(c2)OCO3)CC1,3149,18,1,-3,-18,3.7,8
CN(C)S(=O)(=O)N1CCN(c2cccc(Cl)c2)CC1,21047*,2,2,7,-2,5.4,1
Cc1c(Cc2ccccc2)c(=O)n2c([nH]c3ccccc32)c1C#N,4728,24,73,38,2,74,-5
CC(=O)c1c(C)oc2c1cc(NS(=O)(=O)c1ccc(C(=O)O)cc1)c1ccccc12,3987,-1,1,-4,-10,0.7,-11
Cc1oc(C(C)(C)C)cc1C(=O)NCc1ccc2c(c1)OCO2,4549,13,4,1,-6,-5.5,-21
CC(NC(=O)NCCCC(=O)O)(C(F)(F)F)C(F)(F)F,2590,-7,8,-3,-3,3.3,-16
C=CCNC(=O)C(=O)NCCOc1ccccc1Cl,2229,-1,6,9,-1,2.6,-20
CC(=O)Nc1cccc(NC(=O)CCc2ccccc2)c1,2181,.,-1,.,-3,-2.1,-23

As entered above:
Reading of CCOC(=O)C1CCN(Cc2c(O)ccc3ccccc23)CC1 under Mtb hypoxia rep growth: 0
Reading of CCCOc1ccc(N2C(=O)CC(N(Cc3ccco3)C(=O)CC)C2=O)cc1 (stereo unspecified) under PrP UTR inh: -4

Other entries follow.
Structure,Autofluor counter,Mtb hypoxia rep,Sa ugtP lethal,Mtb hypoxia rep growth,BJeLR lethal,Sa RN4220 lethal,PrP UTR inh
CCCn1c(SCC(=O)NC(C)(C)C)nnc1-c1ccco1,4753,8,-2,2,-1,4.3,-17
CCCCN1C(=O)CC(Sc2ccccc2C(=O)O)C1=O (stereo unspecified),8095,2,11,1,7,4.3,.
O=C(Nc1nnc(S(=O)(=O)Nc2ccccc2)s1)C1CCCCC1,5578,7,6,5,8,16,-20
O=C(NCCc1ccccc1)C1CCN(S(=O)(=O)N2CCCCCC2)CC1,3372,-6,5,7,2,0.1,-36
N#CCCn1c(C(C#N)(CCC#N)CCC#N)nc2ccccc21,9243,-1,2,-7,-14,2.1,-23
COc1cc(OC)cc(C(=O)NCC(=O)N2CCC(C)CC2)c1,3915,-57,1,23,0,1.4,-20
OC(c1ccccc1)c1nccc2ccccc12 (stereo unspecified),5161,-6,-2,12,6,-2.1,-19
COc1ccc(CN(C(=S)Nc2ccccc2)C2CC(=O)N(c3ccccc3)C2=O)cc1 (stereo unspecified),11190,3,-12,0,4,12,-32
Cc1ccc(CN(C(=O)c2csnn2)C(C(=O)NC2CCCC2)c2cccnc2)cc1 (stereo unspecified),3648,-7,-3,9,-4,-3.4,7
COc1cccc(C2C(C#N)=C(N)Oc3c2oc(CO)cc3=O)c1OC (stereo unspecified),22208*,2,0,6,-1,0.5,-12
Cc1ccc(NC2=C(N3CCCCC3)C(=O)c3ccccc3C2=O)cc1,8335,11,50,11,8,16,-35
CCOc1cc(C(C(=O)NCC2CCCO2)N(C(=O)Cn2nnc3ccccc32)c2ccc(C(C)=O)cc2)ccc1O (stereo unspecified),3770,-6,1,4,0,1.5,-8
CCOc1ccccc1C(=O)NCC(=O)OCc1csc(CC(=O)Nc2ccc(C)cc2)n1,?,-4,-7,-6,.,2.9,-16
CS(=O)(=O)N(CC(=O)N1CCc2ccccc2C1)c1cccc(F)c1,3668,.,.,.,7,.,-35
COc1ccc2cc(-c3ccccc3)c(=O)oc2c1,5310,4,0,18,5,5.3,-52
CCN(CC)C(=O)c1ccc(C(=O)c2ccccc2)cc1,9761,21,6,15,-5,-0.5,-31
CCOC(=O)c1c(C)nc(C)c(C(=O)OCC)c1-c1ccc(Br)cc1,2018,8,9,12,-17,3.4,-21
NC(=O)c1ccccc1NC(=O)CN1CCN(Cc2ccc(Cl)cc2Cl)CC1,5748,-15,4,-6,-1,0.3,-17
Cc1ccc(C(=O)O/N=C(\N)c2ccc(Br)cc2)cc1C,3885,10,-3,4,-2,2.3,-50
CC(C)[C@H](NC(=O)OCc1ccccc1)C(=O)OCC(=O)c1ccccc1,3030,12,7,14,.,1.9,-60
COc1ccc(Oc2nnc(C)c3ccccc23)cc1,4335,.,4,.,-2,3.0,-82
Cc1onc(-c2ccccc2)c1C(=O)OCC(=O)c1ccccc1,5065,.,11,.,-9,-4.4,-4
C/C(CC(=O)Nc1ccc2c(c1)OCCO2)=N\NC(=O)Cc1ccc(Cl)cc1,5657,.,.,.,1,.,-29
N#Cc1ccc(OCC(=O)N2CCCC2=O)cc1,5271,13,0,2,.,6.1,.
O=C(NCc1ccc2c(c1)OCO2)C(=O)Nc1cc2c3c(c1)CC(=O)N3CCC2,4099,-1,4,-3,1,2.5,-29
CC(Oc1ccc(F)cc1)C(=O)Nc1cccc(-c2nn[nH]n2)c1 (stereo unspecified),5928,-2,4,0,0,-1.7,-16
COc1cc(OC)cc(C(=O)N2CCCC(Nc3ccc(F)cc3)C2)c1 (stereo unspecified),5436,-3,1,3,14,1.6,-14
CCN(CC)c1ccc(C=NNc2ccccc2)c(O)c1,.,9,33,16,.,2.2,.
COc1ccccc1NC(=O)Cn1nnc(-c2ccccc2NC(=O)c2cnccn2)n1,2311,-5,-1,6,-9,2.4,-20
Cc1ccc(S(=O)(=O)N/N=C\c2ccc(C)o2)cc1,9786,.,.,.,7,.,-32
O=C(O)c1nccnc1C(=O)Nc1ccc(Oc2c(Cl)cccc2Cl)nc1,4660,5,5,2,3,3.5,-15
CC(C)Cn1cnc2c1c(=O)n(CC(O)c1ccccc1)c(=O)n2CC(C)C (stereo unspecified),16131*,5,0,5,-9,3.5,1
O=C(O)c1cc(S(=O)(=O)Nc2cccc(Oc3ccccc3)c2)ccc1Br,4409,10,5,-1,-10,-0.4,-1
O=c1c2ccccc2nc(COc2ccccc2)n1/N=C/c1ccc(O)cc1O,4410,.,.,.,3,.,-2
CCc1ccc(CN2CCCC(C(=O)c3sccc3C)C2)o1 (stereo unspecified),4352,-3,-14,11,8,0.2,-19
O=C(CSCc1cc(=O)n2nc(C3CC3)sc2n1)Nc1ccc(F)cc1,5192,-2,1,-1,2,-1.0,-25
COc1cccc(/C(O)=C/c2nc3ccc(C(=O)NCCc4cccc(C)c4)cc3[nH]c2=O)c1,2986,-1,-17,4,10,18,-10
CCCN1C(=O)C(NS(=O)(=O)c2ccc(N)cc2)(C(F)(F)F)C(C(=O)OC)=C1C (stereo unspecified),4258,.,-4,.,-1,3.5,-27
CSC1=C(C#N)C(c2ccc3c(c2)OCO3)C2=C(CCCC2=O)N1 (stereo unspecified),3774,13,3,7,2,8.1,-27
CC(C)(C)NCc1ccc(OCc2cccs2)cc1,4505,14,3,5,.,8.1,-32
Cc1cc(C)n(CCN(C)c2nc3nonc3nc2N2CCCCC2)n1,4347,11,4,4,5,6.9,-20
Cc1cc(C)n(CC(=O)N2CCCC(N3CCN(c4ccc(F)cc4)CC3)C2)n1 (stereo unspecified),.,14,5,-28,7,1.9,-4
COc1cccc(C(=O)NCCSc2ccc(C)cc2)c1,2477,-1,-1,-8,-36,0.5,-22
Cc1c(C(=O)N2CCOCC2)c(S(=O)(=O)Nc2ccccc2F)c(C)n1C,5284,4,-1,13,1,0.1,1
Cc1ccc(S(=O)(=O)NCc2ccccc2)cc1C(=O)NC1CCCCC1,6151,5,0,8,3,0.5,4
Cc1cccc(OCCn2c(=O)oc3ccc(C)cc32)c1,3426,7,-14,12,-8,5.6,-54
O=C(Nc1cc2c(cc1Br)OCCO2)c1cccnc1,6176,0,5,0,-2,-0.4,-34
O=C(O)c1ccccc1C(=O)Nc1ccc(Nc2ccc([N+](=O)[O-])cc2[N+](=O)[O-])cc1,2828,8,4,-1,7,2.5,-9
COC(=O)c1ccccc1-c1ccc(/C=N/Nc2nc(N3CCCC3)nc(N3CCCC3)n2)o1,3427,.,.,.,4,.,-2
CC(=O)Nc1ccc(NC(=O)C(C)OC(=O)c2cccc(S(=O)(=O)N3CCCCC3)c2)cc1 (stereo unspecified),?,3,3,5,11,0.4,-13
O=C1NC(c2cccc(Cl)c2)Nc2ccccc21 (stereo unspecified),2742,-7,11,0,-3,5.6,-5
Cc1sc(NC(=O)CSc2nc(N)cc(N)n2)c(C#N)c1C,5431,15,4,11,17,5.2,-1
CCOCCCNC(=O)c1cn(CC)c2ccc(S(=O)(=O)N3CCC(C)CC3)cc2c1=O,4798,7,12,8,8,3.0,-3
CN1CCc2c(sc(/N=C/c3ccco3)c2C(N)=O)C1,4497,.,.,.,-4,.,3
O=C(c1cccs1)c1sccc1Cc1ccccc1,2881,5,25,5,.,3.7,-35
CCCOc1ccc(C(=O)NCC(c2cccs2)N(C)C)cc1 (stereo unspecified),2003,-1,11,-8,5,6.3,-13
COc1cccc2cc(C(=O)N3CCN(c4ccccc4F)CC3)c(=O)oc12,2956,.,6,.,9,5.4,-14

This is a random part of the collection, and some 4.1% of all compounds hit somewhere here.
